CtBP-E1A blk: inhibitors of CtBP/E1A interaction; AlphaScreen GST-E1A/His-CtBP binding, 1536-well; stronger effect = lower value; control for the full effect not named in the record; activity change, % (concentration not given with the values); hit rate 0.49% among 340,000; in the data active means activity change below about -65%; inconclusive means about -30% to -65%; inactive means above about -30%; also: % is scaled to controls: 0 for no effect and ±100 for the full control effect
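AlphaScreen with 125 nM GST-E1A and 125 nM His-CtBP (5X stocks) in Tris pH 8.0, 300 mM NaCl, BSA, Tween 20, TCEP. Compounds preincubated 2 h at 37 deg C, then glutathione donor/nickel acceptor beads added for 1 h at 37 deg C in dark.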
D2 potentiator: positive allosteric modulators of human D2 dopamine receptor. potentiation, % (test concentration not listed). hit rate 0.23% among 360,000. DiscoveRx D2 beta-arrestin cells, luminescence, 90 min; 100% = 57 uM dopamine signal; active = potentiation of 50% or more; inconclusive = 30% to 50%; inactive = 30% or less;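 also: compound concentration not given in the record; tested on top of an EC20 dose of dopamine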
Target sequence (P14416 whole entry, looked up): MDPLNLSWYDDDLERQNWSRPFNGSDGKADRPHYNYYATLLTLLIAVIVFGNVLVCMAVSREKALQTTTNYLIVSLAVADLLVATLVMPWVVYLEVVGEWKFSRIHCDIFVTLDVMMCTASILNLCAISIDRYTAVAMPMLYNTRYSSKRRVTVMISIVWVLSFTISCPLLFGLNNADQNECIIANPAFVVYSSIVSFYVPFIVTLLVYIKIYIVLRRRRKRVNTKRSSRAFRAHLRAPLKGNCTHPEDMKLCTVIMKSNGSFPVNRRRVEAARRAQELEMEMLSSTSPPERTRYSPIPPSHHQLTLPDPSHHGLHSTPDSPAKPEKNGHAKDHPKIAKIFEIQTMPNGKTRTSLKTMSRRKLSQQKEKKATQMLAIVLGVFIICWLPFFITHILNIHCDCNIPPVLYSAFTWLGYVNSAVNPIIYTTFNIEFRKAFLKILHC
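PathHunter D2 cells, attached overnight at 37 deg C, received compound in DMSO plus dopamine at EC20 (50 nM final) for 90 min at 37 deg C. Beta-arrestin recruitment was read as luminescence after 1 h with detection reagent at ambient temperature.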
Six1-Eya2 inh: Six1/Eya2 interaction inhibition; Q15475+O00167; AlphaScreen GST-Six1/His-Eya2 binding, biochemical; stronger effect = lower value; control for the full effect not named in the record; activity change, % (test concentration not listed); hit rate 0.56% among 360,000; AID 651725; in the data active = activity change below about -65%; inconclusive = about -30% to -65%; inactive = above about -30%; also: % is scaled to controls: 0 for no effect and ±100 for the full control effect; compound concentration not given in the record
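Six1/Eya2 binding was read as AlphaScreen signal after compounds were pinned into GST-Six1 plus His-tagged Eya2 (5X stock 250/500 nM) in pH 8.0 Tris/NaCl/TCEP buffer, beads added, then incubated 1 h, 37 C, dark.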
D2 agonist: human D2 receptor agonism in beta-arrestin assay. P14416. DiscoveRx PathHunter D2 beta-arrestin, luminescence, 90 min; 100% = 57 uM dopamine signal. activation, % (no concentration beside the values). hit rate 0.084% among 360,000; in the data active = activation above about 40%; inconclusive = about 15% to 40%; inactive = below about 15%; also: compound concentration not given in the record; the text of the record calls up to 30% inactive
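DiscoveRx PathHunter D2 beta-arrestin cells (2,100/well) attached overnight, then compound-stimulated 90 min at 37 C in HBSS/10 mM HEPES/0.1% Tween-20 buffer; beta-galactosidase complementation read by luminescence after 1 h at ambient temperature. Dopamine 57 uM final (EC100) as control.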
PINK1 expr mod: modulators of PINK1 expression | PINK1 immunofluorescence, high-content cytometry, 24 h | Potency, µM (highest dose often 76.6 µM), for inactives: at the highest dose activation (PINK1 increase), hits mostly activators | hit rate 0.2% among 410,000 | AID 624263; active = well fitted activation curve with a large enough effect; inconclusive = small, poorly fitted or top-dose-only effect; inactive = flat fitted curve, though single readings scatter; cell line not stated here;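 also: potency is read from the fitted curve at half-maximal effect; % of control where 0% means no effect; nearly all actives have a fitted effect of over 65% in size; a mitochondrial uncoupler was the plate control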
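A stable cell line was treated with compounds at 5 concentrations for 24 hours, with CCCP as control. PINK1 levels and mitochondrial localization were measured by immunofluorescence with mitochondrial, cell and nuclear markers after fixation, read by laser-scanning cytometry.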
TRPML1 agonist: agonists of human TRPML1 channel | Q9GZU1 | TRPML1-expressing cells, Ca2+ dye fluorescence, FDSS; host cell line not named in the record; reference of the full effect not given here | activation, % (no concentration beside the values) | hit rate 0.12% among 410,000; in the data active = activation above about 50%; inconclusive = about 30% to 50%; inactive = below about 30%; also: 0% is about no effect; the text of the record puts the active cut at 80%
Target sequence (Q9GZU1 whole entry, looked up): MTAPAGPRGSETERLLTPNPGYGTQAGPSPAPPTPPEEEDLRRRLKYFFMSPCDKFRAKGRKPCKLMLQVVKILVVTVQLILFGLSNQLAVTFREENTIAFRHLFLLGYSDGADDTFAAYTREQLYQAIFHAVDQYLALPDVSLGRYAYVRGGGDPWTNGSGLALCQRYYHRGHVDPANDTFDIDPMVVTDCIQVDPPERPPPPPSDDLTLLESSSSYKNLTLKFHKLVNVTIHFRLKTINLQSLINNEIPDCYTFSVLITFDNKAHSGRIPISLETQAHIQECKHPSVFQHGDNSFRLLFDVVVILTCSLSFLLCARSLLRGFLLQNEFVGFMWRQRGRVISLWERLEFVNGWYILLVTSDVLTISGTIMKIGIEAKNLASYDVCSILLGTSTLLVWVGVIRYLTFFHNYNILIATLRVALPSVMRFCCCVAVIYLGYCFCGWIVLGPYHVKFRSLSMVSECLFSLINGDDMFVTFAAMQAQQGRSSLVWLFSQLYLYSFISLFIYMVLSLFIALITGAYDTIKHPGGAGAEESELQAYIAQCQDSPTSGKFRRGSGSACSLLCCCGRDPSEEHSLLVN
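Tet-induced TRPML1-DL cells, 1,500 per well, cultured overnight, were loaded with a no-wash Ca2+ dye for 45–90 min. Calcium fluorescence was recorded on the FDSS for 110 s after compound addition, before the EC80 agonist (4 uM 54-4) was added.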
Numbers without * were called inactive; ? = inconclusive; . = not tested or not shown; & = joins results of further samples; [ ] = remark or other dose.

SMILES	CtBP-E1A blk	D2 potentiator	Six1-Eya2 inh	D2 agonist	PINK1 expr mod	TRPML1 agonist
CSc1ccc(CCNC(=O)CCc2nnc3ccc(N4CCCC4)nn23)cc1	6	-3	2	4.0	1.1%	-0.6
Cc1ccc(Cn2nnc3c(=O)n(CC(=O)N4CCN(c5ccccc5)CC4)cnc32)cc1	1	-22	-1	-2.1	.	1.1
CC(=O)c1c(CSc2ccccc2)oc2ccc(O)c(CN(C)C)c12	2	-4	0	-5.6	0.0%	-0.7
COCCCNCCCCOc1ccc(Br)cc1C	-10	-9	11	-7.1	-2.3%	2.0
C/C(=N\NC(=O)Cn1nc(C)c([N+](=O)[O-])c1C)c1ccco1	5	-13	0	-0.4	3.7%	-0.3
N#CC1(NC(=O)CN2C(=O)c3ccc([N+](=O)[O-])cc3C2=O)CCCCC1	-7	?	6	11	0.8%	0.0
CS(=O)(=O)c1ccccc1-c1nnc(NC(=O)c2cccc(N3C(=O)CCC3=O)c2)o1	0	1	-9	-6.3	2.1%	0.9
Cc1ccc(N(CC(=O)NCC2CCCO2)C(=O)CCC(=O)Nc2cc(C)on2)cc1 (configuration not stated)	3	0	-1	-1.5	3.3%	-0.7
COc1ccccc1C(=O)NCC(=O)NC(C)c1ccc(-n2ccnc2)cc1 (configuration not stated)	12	-14	4	-2.1	-1.0%	0.3
CCc1ccc(-c2cc(C(=O)Nc3ccc(S(=O)(=O)NC(C)=O)cc3)c3ccccc3n2)cc1	-2	-9	1	-5.1	3.2%	0.8
COc1c([N+](=O)[O-])cc(C(=O)NNC(=O)c2ccc(C)cc2)cc1[N+](=O)[O-]	0	-18	-1	-9.0	-0.4%	-0.3
O=C(CN1C(=O)c2ccccc2S1(=O)=O)NCCSc1ccccc1	3	15	0	-1.1	-2.0%	4.7
CC(C)=CCC/C(C)=C/COc1ccc2ccc(=O)oc2c1	58	-32	24	-3.8	?	.
CC1(C)C(=O)Nc2ccccc2N1C(=O)COC(=O)Cc1ccccc1F	-5	-9	-7	-0.2	2.7%	-0.3
CCOC(=O)C1(C)NC(c2cc(OC)c(OC)c(OC)c2)C2C(=O)N(CC)C(=O)C21 (configuration not stated)	10	4	1	-3.1	5.3%	0.0
COC(=O)[C@@]1(Cc2ccc(OC)cc2)[C@H]2c3cc(C(=O)N4CCCC4)n(Cc4ccc(OC(F)(F)F)cc4)c3C[C@H]2CN1C(=O)c1ccccc1	-19	.	-26	.	2.2%	0.5
Cc1onc(-c2ccccc2)c1C(=O)OCC(=O)N1CCCCC1	-3	-14	12	1.3	-0.6%	-0.4
O=C(Cc1ccccc1[N+](=O)[O-])NCC(O)c1ccc2c(c1)OCO2 (configuration not stated)	0	-18	8	-2.5	-0.9%	-0.1
CCN(CC)C(=O)c1[nH]cnc1C(=O)N[C@@H](CCCCNC(=O)OC(C)(C)C)C(=O)OC(C)(C)C	-5	-3	7	-2.6	-1.0%	0.1
O=C(NCc1cccs1)C1CCCN(C(=O)Nc2ccc(F)cc2)C1 (configuration not stated)	18	-4	9	-3.9	3.1%	-0.7
Cc1ccc(C(=O)OCC(=O)Nc2cccc(S(=O)(=O)N3CCCCC3)c2)s1	-10	-5	-11	1.6	2.0%	-0.1
Cc1cc(Oc2cccc3c2S(=O)(=O)N(C2CCCC2)CC(COCc2ccccc2)O3)cc(C)c1C (configuration not stated)	-5	-6	-4	-6.8	3.2%	0.5
CC(C)C[C@H]1CN=C(Nc2ccccc2)N1CCCC1CCCCC1	-1	-22	-9	-4.0	?	0.4
COC(=O)CCc1c(C)[nH]c(C(=O)OCc2ccccc2)c1C	?	-8	?	-0.3	-2.0%	0.4
O=C(/C=C/c1ccccc1)N/C(=C/c1ccccc1)C(=O)NCCCO	-9	2	9	-0.1	3.3%	0.8
The listing continues.
SMILES	CtBP-E1A blk	D2 potentiator	Six1-Eya2 inh	D2 agonist	PINK1 expr mod	TRPML1 agonist
CC(C)CC(=O)NCCc1ccncc1	2	-2	7	0.5	1.3%[38.3 µM]	-0.3
CC1C(=O)N2CCCc3cc(NC(=O)C4CCCCC4)cc1c32 (configuration not stated)	4	11	0	1.7	2.9%	-0.2
O=C(CCN1C(=O)c2ccc([N+](=O)[O-])cc2C1=O)Nc1ccc(O)cc1C(=O)O	-1	61*	-1	?	4.3%	0.1
CC(C)(C)NC(=O)NC(=O)CN1CCN(C(c2ccccc2)c2ccccc2)CC1	22	-17	-6	6.3	3.9%	0.9
O=C(CSc1nnc2scc(-c3ccc(F)cc3)n12)NCc1ccco1	4	-8	-2	-2.6	3.7%[38.3 µM]	2.9
Cc1ccc(C(=O)O/N=C2\CCCc3ccccc32)cc1	29	-33	21	-0.8	.	2.9
O=C(Nc1nnc(S(=O)(=O)N2CCCC2)s1)c1ccccc1F	-11	-9	-2	-3.7	0.8%&-1.5%	-0.6&1.3
Cc1ccc(C)c(S(=O)(=O)Nc2ccccc2C(=O)Nc2ccccc2N2CCOCC2)c1	-1	-2	0	-2.3	0.2%	2.9
COc1ccccc1N1CCN(C(=O)/C=C/c2ccc(C)cc2)CC1	-4	-2	-8	-2.4	2.3%	0.4
COc1ccc(N2C(=S)NC3c4cc(Cl)ccc4OC2(C)C3C(=O)N(C)C)cc1 (configuration not stated)	-9	-5	0	-5.1	4.7%	0.1
COc1ccccc1N1CCN(CC(=O)NC(=O)NCc2ccccc2)CC1	2	-21	2	-1.0	-1.4%	-0.7
O=C(CCC(=O)N1CCOc2ccccc21)Nc1ccccc1Cl	2	-10	0	-5.8	1.5%	-0.3
CC(C)(C)c1ccc(-c2nnc(SCC(=O)Nc3sc4c(c3C#N)CCCC4)o2)cc1	4	16	-9	-0.8	15%	1.4
CNC(=O)N(O)C1N(/N=C/c2cccs2)C(=S)SC1(C)C (configuration not stated)	7	0	-4	-1.9	1.8%	0.4
CN1CCc2c(sc3c2C(=O)NC(c2ccc(-c4cccc(Cl)c4)o2)N3)C1 (configuration not stated)	-2	1	?	3.2	?	4.9
O=C(NC(=S)Nc1ccc2c(c1)OCCO2)c1ccccc1F	29	5	-5	-5.3	5.9%	0.8
O=C(C#Cc1ccccc1)NCc1ccccc1F	-3	-6	4	-5.2	-0.7%	0.6
CS(=O)(=O)c1ccc(C(=O)OCC(=O)NNC(=O)COc2ccc(Cl)cc2)cc1	9	-16	4	1.1	3.9%	-0.8
Cc1ccc(CNC(=O)c2ccc(N3CCC4(CC3)CC(c3ccccc3)=NO4)c(NC(=O)c3c(Cl)cccc3Cl)c2)cc1	5	-5	2	-2.1	2.0%	0.3
CN(CC(=O)Nc1ccccc1Cl)C(=O)CSc1nnc(-c2ccco2)n1C	2	0	-1	0.8	0.1%	2.2
O=S(=O)(Cc1ccccc1Cl)Nc1ccccn1	0	-3	2	-2.4	-0.8%[38.3 µM]	3.4
O=C(C[C@@H]1C[C@@H]2c3cc(NC(=O)C4CCOCC4)ccc3O[C@@H]2[C@H](CO)O1)NCc1ccccn1	2	-2	5	-8.8	0.3%	-0.1
CCOc1ccccc1NC(=O)Cn1c(=O)oc2cc(Cl)ccc21	-24	0	2	-0.9	0.3%	-1.5
COc1ccc(Cl)cc1Cn1c(C)c(C(=O)NCc2ccccc2C(F)(F)F)sc1=O	1	-7	0	-5.8	1.5%	0.5
COc1cccc(CN2CC(C(=O)NCc3ccc(C)c(F)c3)CCC2=O)c1 (configuration not stated)	-4	0	10	-0.7	-1.2%	0.2

An excerpt of these results, as comma-separated lines:
compound,CtBP-E1A blk,D2 potentiator,Six1-Eya2 inh,D2 agonist,PINK1 expr mod,TRPML1 agonist
Cc1ccc(C(=O)O/N=C2\CCCc3ccccc32)cc1,29,-33,21,-0.8,.,2.9
CC(=O)c1c(CSc2ccccc2)oc2ccc(O)c(CN(C)C)c12,2,-4,0,-5.6,0.0%,-0.7
Cc1ccc(CNC(=O)c2ccc(N3CCC4(CC3)CC(c3ccccc3)=NO4)c(NC(=O)c3c(Cl)cccc3Cl)c2)cc1,5,-5,2,-2.1,2.0%,0.3

Remaining list, next part.
SMILES	CtBP-E1A blk	D2 potentiator	Six1-Eya2 inh	D2 agonist	PINK1 expr mod	TRPML1 agonist
COC(=O)c1[nH]c2ccc(F)cc2c1NS(=O)(=O)c1ccc(OC)cc1OC	9	-3	-10	-0.1	2.1%	0.1
CN[C@@H](CO)C(=O)NC[C@H]1O[C@@H](n2cnc3c(N)ncnc32)[C@H](O)[C@@H]1O	2	1	29	7.2	0.4%	2.0
COc1ccc(C(=O)Nc2ccc(NC(=O)c3cnccn3)cn2)cc1	4	-14	2	0.9	.	0.5
CCCCCCN1C=CC=C/C1=C/C=C(C#N)C#N	?	9	?	0.6	1.9%	13
CCC[C@H]1CN(c2ccccc2)C(=O)[C@@H]1CC(=O)Nc1ccccc1	-14	.	3	-2.0	0.7%	.
Cc1cc(NC(=O)CSc2nnc(CNC(=O)c3ccc(C(C)(C)C)cc3)o2)no1	?	2	-76*	1.4	3.7%	-0.2
CC1CCN(C(=O)c2ccc(NC(=O)c3cccs3)cc2)CC1	3	-5	-5	-2.0	1.4%	-0.1
COc1cc2c(cc1OC)C(c1cc3cc4c(cc3[nH]c1=O)OCO4)N(C(=O)C(C)C)CC2 (configuration not stated)	10	-32	0	0.6	-1.7%[38.3 µM]	-0.5
CC(C)[C@H](NC(=O)c1ccco1)C(=O)Nc1ccc(OC(F)F)cc1	26	-1	4	-1.6	-1.6%	1.2
Clc1ccc(SCCCN2CCCCC2)cc1	7	-21	1	-2.9	1.3%	-0.5
CN1CCN(C(=S)c2cn(CCOc3ccccc3F)c3ccccc23)CC1	-2	-45	?	-5.6	-0.3%	-0.4
COc1c2ccccc2nn1C(C)C	3	.	-3	.	-1.0%	-1.1
CCOc1ccc(CNC(=O)Nc2ccccc2)cc1	2	-3	2	0.2	2.7%	-1.6
O=C(NC1CCCCC1)N1CCN(S(=O)(=O)c2ccc(F)cc2)CC1	-8	-4	3	-7.8	1.7%	0.5
COc1ccc(NC(=O)CN2C(=O)N(C)Cc3ccccc32)c(C)c1	-9	-1	-2	-1.7	-1.2%	-0.3
CC(O)(c1cccnc1)c1nc(-c2ccc3c(c2)OCO3)cs1 (configuration not stated)	0	-5	0	4.2	-0.3%	-0.9
Cc1cccc(NC(=O)NNC(=O)c2cc(-c3ccccc3Cl)nc3ccccc23)c1	-8	-26	-8	-2.0	-2.7%	2.8
Cc1cc(NC(=O)CCCN2C(=O)/C(=C/c3cccs3)SC2=S)no1	1	1	17	-3.7	13%	2.2
Cc1csc(NC(=O)COc2ccc3c(C)cc(=O)oc3c2)n1	13	-10	0	-1.7	11%[38.3 µM]	-0.8
CC(=O)c1ccc(N2CCN(C(=O)[C@H](C)NC(=O)c3ccccc3Cl)CC2)cc1	1	1	0	0.2	2.4%	0.4
Cc1onc(-c2ccccc2Cl)c1C(=O)NCc1nnnn1-c1ccc(F)c(F)c1	0	-11	8	-0.2	1.3%	0.3

Source: PubChem (National Center for Advancing Translational Sciences (NCATS))

This is a random part of the collection. About 1.3% of those tested had a hit in this group.
